Compound activity from PubChem.
Beta2AR agonist – beta2AR agonists driving receptor internalization, primary screen, cell-based, FAP fluorogen, flow cytometry; AID 504454, 2011; 0.43% of 340,000 active; response, % (test concentration not listed); Beta-2 adrenergic receptor (Homo sapiens), P07550; Am2.2-beta2AR cells; reference of the scale not given here;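 active means response above a set limit, near 3 SD of response in nonfluorescent compounds, cut at about 42% in these data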;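 further: stock transfer was 100 nL into about 11 µL; a reference agonist was the positive control; negative values mostly stem from fluorescent compounds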
E coli growth – E. coli growth inhibition, primary screen, OD600; Escherichia coli growth, 23 h; active compounds read low; OD600 absorbance (no concentration beside the values); 0.21% of 330,000 active;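 active means OD600 absorbance below the run mean of sample wells minus 3.6 SD, in any replicate, cut at about 0.56 in these data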;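 further: stock transfer was 300 nL into about 60 µL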
UCH37 DUB inh – inhibitors of human UCH37 deubiquitinase, primary screen, biochemical, Ub-AMC cleavage, fluorescence; Ubiquitin carboxyl-terminal hydrolase isozyme L5 (Homo sapiens), Q9Y5K5; purified proteasome/UCH37; inhibition, % (test concentration not listed); 0.33% of 330,000 active; AID 588478, 2011;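 active means mean of two replicates above 20%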;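 further: 0% = compound-free wells with enzyme and 100% = wells lacking proteasome; stock transfer was 100 nL into about 20 µL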
Target sequence (Q9Y5K5 whole entry, looked up): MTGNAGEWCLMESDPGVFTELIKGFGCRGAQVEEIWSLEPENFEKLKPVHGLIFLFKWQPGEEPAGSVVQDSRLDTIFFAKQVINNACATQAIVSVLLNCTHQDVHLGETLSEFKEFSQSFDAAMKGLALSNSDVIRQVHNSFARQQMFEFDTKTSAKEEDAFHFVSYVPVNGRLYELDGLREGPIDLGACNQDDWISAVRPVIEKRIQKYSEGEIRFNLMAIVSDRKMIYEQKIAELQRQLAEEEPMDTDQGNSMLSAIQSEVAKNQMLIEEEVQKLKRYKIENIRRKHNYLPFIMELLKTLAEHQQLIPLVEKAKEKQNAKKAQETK
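Schedule: 30 min plus 25 min, room temperature / Material: human UCH37 within purified proteasomes / Technique: AMC fluorescence intensity at 355/460 nm / Buffer or medium: pH 7.4 Tris-HCl (50 mM) with ovalbumin, ATP-MgCl2, DTT / Controls: wells without proteasome as full block, compound-free enzyme plus substrate as uninhibited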
Ecoli rRNA inh – reduced GFP signal of wild-type E. coli, primary screen, bacterial rRNA inhibitor project, GFP/RFP fluorescence, OD600, single point. E. coli WT GFP vs humanized-ribosome RFP mutants, 24 h; active compounds read low; DMSO median 0, no signal -100. AID 720706, 2013. GFP signal change (wild-type ribosome), % (test concentration not listed). 1.6% of 350,000 active;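 active means significant combined selectivity score with lowered wild-type GFP, culture density cut under 30%, mutant RFP and density less affected; inactive means any of these conditions unmet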; further: one replicate is shown; some compounds called inactive have numbers as strong as hits
ALR H2O2 inh – inhibitors of human ALR sulfhydryl oxidase, primary screen, biochemical, H2O2 detection, HRP-luminol luminescence, single point; inhibition, % (no concentration beside the values); 3.8% of 290,000 active; purified ALR, DTT oxidation; FAD-linked sulfhydryl oxidase ALR (Homo sapiens), P55789;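 active means mean and each replicate at 75% or more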;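 further: stock transfer was 7.5 nL into about 7.5 µL; 0% = neutral wells and 100% = wells with inactivated enzyme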
HNF4A DNA FP – change in binding of human HNF4A to DNA, primary screen, biochemical, fluorescence polarization, FITC-DNA | activity change, % at 10 µM | 0.3% of 360,000 active | 1 h | Hepatocyte nuclear factor 4-alpha (Homo sapiens), P41235 | AID 1224865, 2016; in the data active means activity change above about 30%, passing the limit was not always enough;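 further: controls were the assay level and a saturating level of protein; the project sought stronger binding though the title names inhibitors; some compounds called inactive have numbers as strong as hits; positive values seem to mean higher polarization but the record does not say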
Target sequence (P41235 whole entry, looked up): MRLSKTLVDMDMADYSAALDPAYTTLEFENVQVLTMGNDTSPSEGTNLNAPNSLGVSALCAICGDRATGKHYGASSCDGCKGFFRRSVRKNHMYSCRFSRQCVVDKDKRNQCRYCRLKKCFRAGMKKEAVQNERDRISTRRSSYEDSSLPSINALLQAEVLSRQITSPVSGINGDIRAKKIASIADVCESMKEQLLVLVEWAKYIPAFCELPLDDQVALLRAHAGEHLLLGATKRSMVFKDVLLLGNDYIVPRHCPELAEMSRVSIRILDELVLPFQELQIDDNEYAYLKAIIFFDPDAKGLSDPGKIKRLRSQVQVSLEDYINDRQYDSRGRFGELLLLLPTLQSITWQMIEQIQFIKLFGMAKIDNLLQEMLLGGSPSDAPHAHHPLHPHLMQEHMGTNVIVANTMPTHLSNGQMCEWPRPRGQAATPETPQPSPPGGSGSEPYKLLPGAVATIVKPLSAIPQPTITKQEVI
FGF22 binding – binders of human FGF22 protein, primary screen, FGF22 synaptogenesis inhibitor project, biophysical, thermal shift, single point; recombinant FGF22 thermal shift, SYPRO orange fluorescence; percent of sucrose octasulfate shift, DMSO zero; calls only at 9.99 µM; 1.5% of 340,000 active; AID 651658, 2012;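 active means melting point raised past a set limit in the mean and every replicate; three in four hits are not shown here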
Target sequence (Q9HCT0 whole entry, looked up): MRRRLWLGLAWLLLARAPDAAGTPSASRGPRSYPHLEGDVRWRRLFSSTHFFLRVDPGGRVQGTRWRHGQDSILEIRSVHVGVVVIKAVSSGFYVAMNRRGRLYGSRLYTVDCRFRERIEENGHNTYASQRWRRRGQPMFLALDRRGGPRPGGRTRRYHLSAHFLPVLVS
Ecoli rRNA inh OD600 – further read-out of Ecoli rRNA inh, marked with its call; OD600 change, %; measured here: OD600 growth;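 optical density of the mix in the first replicate; 0 = DMSO median and -100 = no signal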
Ecoli rRNA inh RFP – recorded beside Ecoli rRNA inh, whose call it bears; RFP signal change, %; measured here: RFP humanized mutant strains;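 first replicate; 0 = DMSO median and -100 = no signal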
* marks the source's active call; other numbers are inactive results; i = inactive; . = not tested or not shown. A portion of the library; rates above refer to the full screens.

Fields: Ecoli rRNA inh RFP	UCH37 DUB inh	HNF4A DNA FP	E coli growth	Ecoli rRNA inh OD600	Ecoli rRNA inh	ALR H2O2 inh	FGF22 binding	Beta2AR agonist
Cc1ccc(CN2CCN(/N=C/c3ccc(C(F)(F)F)cc3)CC2)cc1
→ .	.	-1.4	.	.	.	-23	.	-6
Cc1ccccc1OCC(=O)Nc1ccc2c(c1)n(C)c(=O)n2C
→ -0.1	3.1	-0.2	0.67	-4	-2	14	i	-2
CCC(=O)Nc1ccccc1Oc1ccccc1
→ .	1.8	2.1	0.73	.	.	.	.	-5
COc1cc(C2=NOC(C(=O)NCc3ccccn3)C2)cc(OC)c1OC (stereo unspecified)
→ .	-2.0	-5.1	0.72	.	.	0	.	-3
Cn1c(=O)c2c(nc(SCc3ccccc3F)n2C)n(C)c1=O
→ -1.2	2.8	-3.2	0.6	-2	1	-3	i	8
COc1cccc(OC)c1C(=O)NC(=O)NNc1cc(C(F)(F)F)cc(C)n1
→ 2.7	1.6	-2.4	0.69	3	4	15	i	2
Cc1nn(-c2ccccc2)c2sc(C(=O)N(CC(=O)NC3CCCC3)Cc3ccco3)cc12
→ .	-1.3	-1.0	0.72	.	.	.	.	-1
Cc1ccccc1CS(=O)(=O)Cc1ccc(C(=O)NCCCN2CCCC2=O)o1
→ 2.6	-2.5	-2.5	0.74	1	5	11	i	-9
Cc1noc(C)c1C(=O)NCC(=O)Nc1ccccc1Br
→ 9.3	0.6	-0.8	0.67	-23	-28	-10	i	10
CCOc1cc(/C=N/O)ccc1OCc1ccc([N+](=O)[O-])cc1
→ -4.1	.	1.3	.	-5	0	5	i	8
COc1ccccc1NC(=O)CCC(=O)N(Cc1ccc(OC)c(OC)c1)c1nccs1
→ 2.7	3.1	0.5	0.69	0	-2	1	i	-5
CCc1nc2ccc(C(=O)Nc3cccc(OCC(=O)N(C)C)c3)cn2c1N(CCC(C)C)CCN(C)C
→ 1.6	.	1.8	.	-6	-4	.	i	.
Cc1ccc(C(=O)COC(=O)CN2C(=O)C3C4C=CC(C4)C3C2=O)cc1C (stereo unspecified)
→ 0.3	-0.4	0.8	0.66	-1	0	0	i	5
Cc1nc(N)sc1C(=O)N/N=C/c1cccnc1
→ -5.5	.	-0.7	.	9	9	-4	i	-6
C=CCN(C(=O)c1csnn1)C(C(=O)NC1CCCC1)c1ccc(OC)cc1 (stereo unspecified)
→ 0.8	0.2	2.1	0.7	-2	-1	-5	i	6
O=C(NCc1ccccc1)C(c1ccccc1)n1c(=O)c(-c2cc3ccccc3[nH]2)nc2ccccc21 (stereo unspecified)
→ 0.4	.	2.2	.	3	4	.	i	.
Cc1ccc([C@H]2C[C@@H](n3cc(-c4ccc(F)cc4)nn3)[C@H](O)CN2C(=O)C2CCCCC2)cc1
→ -2.9	.	6.1	.	-24	-11	.	i	.
CN(C(=O)CN1C(=O)c2cccc(N)c2C1=O)C1CCCCC1
→ .	-159	-18	0.66	.	.	-1	i	-19
CCOc1ccc(N2C(=O)/C(=C\c3ccc(OC)c(O)c3)S(=O)(=O)C2c2cccc([N+](=O)[O-])c2)cc1 (stereo unspecified)
→ -3.6	2.9	-0.9	0.68	4	13	.	i	11
CCCCOc1ccc(C(C)NC(=O)C2CCCN(S(=O)(=O)CCC)C2)cc1 (stereo unspecified)
→ .	3.7	-0.3	0.7	.	.	1	.	-12

One compound at a time, as listed above.
Shown for `Cn1c(=O)c2c(nc(SCc3ccccc3F)n2C)n(C)c1=O` = Ecoli rRNA inh RFP = -1.2; UCH37 DUB inh = 2.8; HNF4A DNA FP = -3.2; E coli growth = 0.6; Ecoli rRNA inh OD600 = -2; Ecoli rRNA inh = 1; ALR H2O2 inh = -3; FGF22 binding = i; Beta2AR agonist = 8
Shown for `CCc1nc2ccc(C(=O)Nc3cccc(OCC(=O)N(C)C)c3)cn2c1N(CCC(C)C)CCN(C)C` = Ecoli rRNA inh RFP = 1.6; UCH37 DUB inh = .; HNF4A DNA FP = 1.8; E coli growth = .; Ecoli rRNA inh OD600 = -6; Ecoli rRNA inh = -4; ALR H2O2 inh = .; FGF22 binding = i; Beta2AR agonist = .

Carrying on:
Fields: Ecoli rRNA inh RFP	UCH37 DUB inh	HNF4A DNA FP	E coli growth	Ecoli rRNA inh OD600	Ecoli rRNA inh	ALR H2O2 inh	FGF22 binding	Beta2AR agonist
COCCNC(=O)c1cc2c(=O)n3cccc(C)c3nc2n1C
→ 0.2	-425	2.0	0.74	3	-5	-10	i	-2
CCOC(=O)C1(C)CCCN1C(=O)c1cncc(Br)c1 (stereo unspecified)
→ 2.4	.	2.7	.	9	6	.	i	.
O=C(NCc1ccccn1)C1CCN(S(=O)(=O)c2cnc[nH]2)CC1
→ -3.9	2.0	-3.4	0.69	5	1	-2	.	-6
Cc1occc1C(=O)Nc1nn[nH]n1
→ .	2.5	-0.9	0.7	.	.	0	.	-5
CC(C)CC(NC(N)=O)C(=O)Nc1ccc(Cl)c(Cl)c1 (stereo unspecified)
→ -0.7	4.7	-2.2	0.66	-13	-16	-2	i	-165
Cc1ccc(NC(=O)CN(C)C(=O)c2ccc(OCc3cn4ccccc4n3)cc2)cc1
→ -0.5	0.7	-3.6	0.65	-7	-8	-3	i	-9
CN1C(=O)C2(C(C#N)=C(N)N(c3cc(Cl)cc(Cl)c3)C3=C2C(=O)CCC3)c2ccccc21 (stereo unspecified)
→ .	4.1	-0.2	0.67	.	.	-5	.	2
Cc1ccc(NC(=O)Cn2cnc3c(cnn3C(C)(C)C)c2=O)cc1
→ .	-0.9	-2.0	0.7	.	.	-2	.	6
CC(=O)Oc1c(Br)cc(N(C(C)=O)S(=O)(=O)c2ccccc2)c2ccccc12
→ -0.5	36*	-2.1	0.67	-41	-24	-14	i	60*
CCCCn1c(N)c(N(CCOC)C(=O)COC(=O)C(C)(C)Oc2ccc(Cl)cc2)c(=O)[nH]c1=O
→ 0.5	2.7	-2.9	0.71	4	4	-6	i	4
Cc1nn(-c2ccccc2)c(Cl)c1/C=N/NC(=O)OC(C)(C)C
→ 2.5*	.	-1.9	.	-11*	-20*	-1	i	8
C=CCNC(=S)NNC(=O)C(CCC(C)C)CC(C)O (stereo unspecified)
→ .	3.0	-0.2	0.79	.	.	-4	.	-4
CC(=O)c1cccc(NC(=O)CC2S/C(=N/N=C/c3cccs3)NC2=O)c1 (stereo unspecified)
→ -2.1	.	-0.7	.	-5	-8	0	i	-1
COc1ccccc1CC(=O)Nc1ccc([N+](=O)[O-])cc1OC
→ -0.4	3.2	2.2	0.64	-21	-18	-12	i	-4
CC(=O)Nc1ccc2c(c1)ncn2C1CCCCC1
→ -5.8	0.6	2.1	0.67	4	6	-9	.	2
COc1ccccc1NC(=O)c1cc(N2C(=O)C3C4CCC(C4)C3C2=O)ccc1Cl (stereo unspecified)
→ -1.1	1.1	2.5	0.68	-14	0	-3	i	8
CC(C)NC(=O)C1(C)CCN1C(=O)c1ccccc1Oc1ccccc1 (stereo unspecified)
→ -2.3	.	0.3	.	-4	-1	.	i	.
CC(C(=O)N(C)C1CCCCC1)N1CCC(C(N)=O)CC1 (stereo unspecified)
→ 0.8	6.2	0.1	0.68	10	11	-2	i	-1
CSc1ncccc1C(=O)OCc1ccc(C#N)cc1
→ .	3.3	-1.4	0.74	.	.	-4	.	9
CCOC(=O)C1(Cc2cccc(OC)c2)CCCN(C(=O)c2cc(C)on2)C1 (stereo unspecified)
→ 4.5	3.6	0.1	0.71	-4	-7	0	i	0
COc1cc(CCCN2CCNC[C@H]2Cc2cccc3ccccc23)cc(OC)c1OC
→ 1.3	-0.7	-0.5	.	-1	-1	-15	i	22
CN1N=C(C(C)(C)C)CSC1=Nc1ccccc1
→ -3.0	5.4	0.7	0.68	-16	3	.	i	-4
Cc1ccc(NNC(=O)c2ccno2)cc1C
→ .	4.5	2.2	0.63	.	.	98*	i	0
CC(O)CN(CCC(N)=O)CCC(N)=O (stereo unspecified)
→ .	-0.3	-0.6	0.68	.	.	0	.	-5
Cc1cccc(N2CCCn3c2nc2c3c(=O)[nH]c(=O)n2C)c1
→ -1.2	0.1	3.7	0.67	7	9	13	i	13
CS(=O)(=O)N1CCCC(C(=O)Nc2ccccc2)C1 (stereo unspecified)
→ -3.2	4.1	2.4	0.67	10	5	3	i	5
Oc1ccc(N2CCN(c3ccnc4cc(Cl)ccc34)CC2)cc1
→ -2.0*	1.0	-0.1	0.64	-15*	-38*	69	i	-13
O=C(CSc1ncnc2ccccc12)c1ccco1
→ .	5.8	-3.1	0.68	.	.	99*	.	-4
COCCCNC(=O)c1nc2c(nnn2Cc2cc(C)ccc2C)c(=O)[nH]1
→ -1.8	2.3	10	0.7	-4	-5	6	i	-6
CCCCC1=CC2=CC(=O)C(C)(OC(=O)c3cccs3)C(=O)C2=CO1 (stereo unspecified)
→ 19	0.0	16	0.71	9	4	.	i	1
Cc1nnc(SCC(=O)NC2CCCC2)s1
→ .	-1.4	-0.4	0.73	.	.	0	.	-3
CCN(CC(=O)Nc1c(F)cccc1F)C(=O)CCc1nc2sc3c(c2c(=O)[nH]1)CCCC3
→ 4.7	-0.6	2.4	0.66	5	-1	.	i	4
CCn1nnnc1NCc1c(OC)ccc2ccccc12
→ 0.4	4.8	0.4	0.72	0	-2	-6	i	4
COc1ccc(C2=NN(C(=O)CN3CCCCC3)C(c3ccc(OC)cc3)C2)cc1 (stereo unspecified)
→ 2.6	-1.4	3.9	0.63	7	5	-5	i	-3
O=C(CNS(=O)(=O)c1ccccc1)N/N=C/c1ccccc1[N+](=O)[O-]
→ 2.7	.	3.9	.	6	10	-9	i	-3
COc1ccc(OC)c(NS(=O)(=O)c2ccc3[nH]c(=O)[nH]c3c2)c1
→ -0.8	.	0.4	.	-8	1	.	i	.
COc1ccc(CNC(=O)CSc2nc3c(oc4ccccc43)c(=O)n2CC2CCCO2)cc1 (stereo unspecified)
→ -1.8	3.5	0.8	0.61	18	15	-29	i	11
Cc1cc(N2C(=O)c3ccc(C(=O)Nc4ccc(CC(=O)O)cc4)cc3C2=O)no1
→ -3.2	3.0	-1.5	0.73	13	7	10	i	-4
N#CCCN(C(=O)COC(=O)CCc1c[nH]c2ccccc12)c1ccc(F)cc1
→ 1.3	2.1	-0.4	0.65	-8	-8	.	i	-4
CN(CCO)C(=O)c1c(NC(=O)c2ccccc2)sc2c1CCCC2
→ -0.1	.	-0.1	.	8	10	-1	i	-2
S=c1[nH]ccn1-c1c(Cl)cccc1Cl
→ 4.2	1.2	-0.4	0.68	6	6	12	i	-10

A second format for part of the listing above:
canonical_smiles	Ecoli rRNA inh RFP	UCH37 DUB inh	HNF4A DNA FP	E coli growth	Ecoli rRNA inh OD600	Ecoli rRNA inh	ALR H2O2 inh	FGF22 binding	Beta2AR agonist
CS(=O)(=O)N1CCCC(C(=O)Nc2ccccc2)C1 (stereo unspecified)	-3.2	4.1	2.4	0.67	10	5	3	i	5
Oc1ccc(N2CCN(c3ccnc4cc(Cl)ccc34)CC2)cc1	-2.0*	1.0	-0.1	0.64	-15*	-38*	69	i	-13
O=C(CSc1ncnc2ccccc12)c1ccco1	.	5.8	-3.1	0.68	.	.	99*	.	-4
